High-throughput results: PubChem BioAssay, Center for Chemical Genomics, University of Michigan
HIV TAR-Tat: HIV-1 TAR-Tat binding disruption; HIV-1 TAR RNA, Tat peptide displacement FRET; hits give high values; z-score (no concentration beside the values); 100,000 tested, 0.6% active; AID 1259389;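 also: score is relative to mean and SD of negative controls; some compounds called inactive have numbers as strong as hits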
CDC25B CDK2 inh: human CDC25B-CDK2/CyclinA binding inhibition; P30305+P24941; HTRF CDC25B-CDK2/CyclinA binding, anti-His/anti-Flag; hits give high values; z-score (concentration not given with the values); 94,000 tested, 0.72% active;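 also: score is relative to mean and SD of negative controls; strong numbers were not always called active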
The depositor's hits bear a star.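 The calls were made as follows: active = z-score from 3 up in half or more of its runs; inactive = the rest.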

Results for O=S(=O)(Nc1ccccc1Cl)c1ccc(-c2cnc(C3CC3)o2)cc1 ?
HIV TAR-Tat: 0.32

How did O=c1ccc(-c2ccc(S(=O)(=O)NCCN3CCc4ccccc4C3)s2)n[nH]1 do in these assays?
HIV TAR-Tat: 0.9

What do the screens show for `Cc1cc(=O)oc2c1c(C)nn2-c1ccc(Cl)cc1`?
HIV TAR-Tat: 6*; CDC25B CDK2 inh: 5.8

How did O=C1C2C(c3ccc(Cl)cc3)OC3(C(=O)c4ccccc4C3=O)C2C(=O)N1c1ccc(F)cc1F (stereo not drawn) do in these assays?
HIV TAR-Tat: 0.46; CDC25B CDK2 inh: -0.58

Results for COCCNc1nc(Nc2cccc(OC)c2)c2cnn(C)c2n1 ?
HIV TAR-Tat: 0.57

How did CC1CN(C(=O)N2CCC(C(=O)N3CCN(c4ccccc4)CC3)CC2)c2cc(Cl)ccc2O1 (stereo not drawn) do in these assays?
HIV TAR-Tat: -11

What do the screens show for `CCOc1ccc(NC(=O)N2CCCC2c2cccs2)cc1` (stereo not drawn)?
HIV TAR-Tat: 0.34; CDC25B CDK2 inh: -3.1

How did COc1cc(OC)c(C(=O)c2ccc(O)cc2)c(OC)c1 do in these assays?
HIV TAR-Tat: 1.3

What do the screens show for `N#Cc1c(N)nc2ccc(Cl)cc2c1-c1ccccc1`?
CDC25B CDK2 inh: -3.7

How did Cc1ccc(N2CCN(S(=O)(=O)c3c(C)noc3C)CC2C)cc1 (stereo not drawn) do in these assays?
HIV TAR-Tat: -0.88; CDC25B CDK2 inh: -2.6

How did CSc1ccc(CCNS(=O)(=O)c2csc(C(N)=O)c2)cc1 do in these assays?
HIV TAR-Tat: -0.59

Results for Cc1sc(CN(C)C)c2c1C(=O)c1ccccc1CS2 ?
CDC25B CDK2 inh: -1.9

Results for Cc1cc(Nc2ccc(Cl)cc2)n2nc(-c3ccco3)nc2n1 ?
HIV TAR-Tat: 0.68

What do the screens show for `Cc1c(NS(=O)(=O)c2ccccc2)cc(Cl)c(O)c1C`?
HIV TAR-Tat: 2.7; CDC25B CDK2 inh: -4.9

Results for COC(=O)C(=O)c1c[nH]c2ccccc12 ?
HIV TAR-Tat: 1.7; CDC25B CDK2 inh: -1.2

Results for Cc1ccc(S(=O)(=O)c2cnc3ccc(C)cc3c2N2CCN(C)CC2)cc1 ?
HIV TAR-Tat: -0.64; CDC25B CDK2 inh: -3

How did CCOC(=O)Cc1csc(-n2nc(C)c(Cc3ccc(C)cc3)c2C)n1 do in these assays?
HIV TAR-Tat: 1.4; CDC25B CDK2 inh: -1.5

How did CC1=C(c2ccc(F)cc2)S(=O)(=O)NC1=NCc1ccc2c(c1)OCO2 do in these assays?
HIV TAR-Tat: -1.5

How did COc1c(Br)cc([N+](=O)[O-])cc1Br do in these assays?
CDC25B CDK2 inh: -1.6

Results for CCOC(=O)c1c(C)n(C)c2ccc(OCC(O)CN3CCCCC3C)cc12 (stereo not drawn) ?
HIV TAR-Tat: 0.87; CDC25B CDK2 inh: -1.1

What do the screens show for `CC(=O)N1CCOc2ccc(S(=O)(=O)NCC3CCC(C(=O)NC4CCC(C)CC4)CC3)cc21` (stereo not drawn)?
HIV TAR-Tat: 0.22

What do the screens show for `CCc1ccc(NS(=O)(=O)c2c(C)nc3sccn3c2=O)cc1`?
HIV TAR-Tat: 1.6

Results for Cc1c(C#N)c(-n2cccc2)n(Cc2cccs2)c1C ?
CDC25B CDK2 inh: -3.7

How did O=C(CN1c2ccccc2NC2=C(C(=O)CCC2)C1c1ccco1)NC1CCCCC1 (stereo not drawn) do in these assays?
HIV TAR-Tat: -9.1

What do the screens show for `CC1=CCC2(C(=O)OC(C)(C)OC2=O)C(c2ccc(Br)cc2)C1` (stereo not drawn)?
CDC25B CDK2 inh: -0.43

How did CCCCNS(=O)(=O)c1ccc(C)c(-c2nnc3c4ccccc4c(C)nn23)c1 do in these assays?
HIV TAR-Tat: 0.1; CDC25B CDK2 inh: -0.73

What do the screens show for `CCOC(=O)c1c(N/N=C\c2ccccc2O)n[nH]c1C`?
CDC25B CDK2 inh: -0.53

What do the screens show for `Cn1c(=O)n(CCCOc2ccc(Cl)cc2)c2ccccc21`?
HIV TAR-Tat: -0.82; CDC25B CDK2 inh: -0.69

What do the screens show for `Cc1ccc(Cn2cnc3cc(C)c(C)cc32)cc1`?
HIV TAR-Tat: 0.33; CDC25B CDK2 inh: -1.1

Results for CCn1c(C(=O)O)c(N2CCCC2=O)c2cc(OC)ccc21 ?
HIV TAR-Tat: 2.6; CDC25B CDK2 inh: -0.37

Reprinted from the part before: two entries, then new ones.
What do the screens show for `Cc1ccc(Cn2cnc3cc(C)c(C)cc32)cc1`?
HIV TAR-Tat: 0.33; CDC25B CDK2 inh: -1.1

Results for CCn1c(C(=O)O)c(N2CCCC2=O)c2cc(OC)ccc21 ?
HIV TAR-Tat: 2.6; CDC25B CDK2 inh: -0.37

Results for CCS(=O)(=O)c1ncc(Cl)c(C(=O)Nc2nc3ccc(F)cc3s2)n1 ?
HIV TAR-Tat: 0.46; CDC25B CDK2 inh: -5.4

How did O=S(=O)(c1ccc(Cl)cc1)n1nc(-c2ccco2)nc1NCc1ccc(F)cc1 do in these assays?
HIV TAR-Tat: 0.46; CDC25B CDK2 inh: -0.04

What do the screens show for `N#CC(C#N)CC(=O)c1ccc(Cl)cc1`?
CDC25B CDK2 inh: 0

Results for CC1(OCC#CCN2CCOCC2)COC(C)(OCC#CCN2CCOCC2)CO1 (stereo not drawn) ?
CDC25B CDK2 inh: -1.9

What do the screens show for `Cc1cc(=O)oc(C)c1C(=O)OCC(=O)c1ccc(Br)cc1`?
HIV TAR-Tat: 1.1; CDC25B CDK2 inh: -1.3

Results for COC(=O)c1cccn1-c1ccccc1[N+](=O)[O-] ?
CDC25B CDK2 inh: -2.6

Results for COc1ccc(N2C(=O)N(c3ccc(F)cc3)C3CS(=O)(=O)CC32)cc1 (stereo not drawn) ?
HIV TAR-Tat: 0.32; CDC25B CDK2 inh: -1.3

Results for Cc1c(C(=O)O)[nH]n(-c2ccc(Cl)cc2)c1=O ?
HIV TAR-Tat: -0.08; CDC25B CDK2 inh: -0.11

What do the screens show for `Cc1ccc(CNS(=O)(=O)c2ccc3c(c2)C(C(C)C)C(=O)N3)cc1` (stereo not drawn)?
HIV TAR-Tat: -0.59

Results for Cc1ccc2nc(NCCc3ccccc3)c3nnnn3c2c1 ?
HIV TAR-Tat: -2.3; CDC25B CDK2 inh: -3.8

How did c1ccc2c(c1)CCN2c1nn2nnnc2c2ccccc12 do in these assays?
HIV TAR-Tat: 1.2

Results for CC(=O)c1cccc(N2C(=O)C3C4C=CC(C4=C(c4ccccc4)c4ccccc4)C3C2=O)c1 (stereo not drawn) ?
CDC25B CDK2 inh: -3.1

Results for COCc1cc(=O)n2[nH]c(-c3ccc(OC)cc3)cc2n1 ?
HIV TAR-Tat: -1.3; CDC25B CDK2 inh: -0.7

Results for CCN(CC)CCNC(=O)Cn1ncc2c(=O)oc3ccccc3c21 ?
HIV TAR-Tat: 1.4; CDC25B CDK2 inh: -0.06

Results for CC1Cn2cc(C(=O)N3CCCc4ccccc43)c(=O)c3c(Cl)ccc(c32)O1 (stereo not drawn) ?
HIV TAR-Tat: 0.68

Among those listed so far, 2 have a nitro group on carbon.
How did COc1c(Br)cc([N+](=O)[O-])cc1Br do in these assays?
CDC25B CDK2 inh: -1.6

Results for COC(=O)c1cccn1-c1ccccc1[N+](=O)[O-] ?
CDC25B CDK2 inh: -2.6

(further entries)
What do the screens show for `Nc1nnc(SCC(=O)n2c3c(c4ccccc42)CCCC3)s1`?
HIV TAR-Tat: -2.2; CDC25B CDK2 inh: -0.63

Results for Cc1oc2ccc(NS(=O)(=O)c3ccc(Cl)cc3)cc2c1C(=O)O ?
HIV TAR-Tat: 23*; CDC25B CDK2 inh: 3.9

Results for CC(C)CCNc1c(-c2cccc(Cl)c2)nc2c(C#N)c[nH]n12 ?
HIV TAR-Tat: -0.61; CDC25B CDK2 inh: -0.79

How did O=C(CSC1=Nc2ccccc2N=C(c2ccc(F)cc2)C1)NCc1ccc2c(c1)OCO2 do in these assays?
HIV TAR-Tat: 0.58

How did CCOC(=O)Cn1nc(SC)n2c(=O)c3c(nc12)-c1ccccc1CC3(C)C do in these assays?
HIV TAR-Tat: -0.6; CDC25B CDK2 inh: -0.56

What do the screens show for `CC(C)(C)C(=O)c1cn(CC(=O)N2CCCc3ccccc32)c2ccccc12`?
HIV TAR-Tat: 0.94; CDC25B CDK2 inh: -0.79

What do the screens show for `CC(C)(C)c1ccc(-c2cc3nc4c(c(=O)n3[nH]2)CCCC4)cc1`?
CDC25B CDK2 inh: -1.2

What do the screens show for `COc1cc(C(=O)Nc2c(C)cc(C)c(NC(=O)c3cc(OC)c(OC)c(OC)c3)c2C)cc(OC)c1OC`?
CDC25B CDK2 inh: -1.5

How did COc1nc(N)nc(C2CC2)n1 do in these assays?
CDC25B CDK2 inh: -0.07

Results for O=C(CSc1nc2sc3c(c2c(=O)[nH]1)CCCC3)N1CCCCC1 ?
HIV TAR-Tat: -0.64; CDC25B CDK2 inh: -1.6

How did COC(=O)c1sc(N2C(=O)c3oc4ccccc4c(=O)c3C2c2ccco2)nc1C (stereo not drawn) do in these assays?
HIV TAR-Tat: -0.26; CDC25B CDK2 inh: -1

What do the screens show for `COc1cc(C2NC(C(=O)O)Cc3c2[nH]c2ccccc32)cc(OC)c1O` (stereo not drawn)?
CDC25B CDK2 inh: 0.28

How did COc1ccc(-c2nc3n(n2)C(=O)CC(c2ccc(Cl)cc2)S3)cc1 (stereo not drawn) do in these assays?
HIV TAR-Tat: 0.52; CDC25B CDK2 inh: 0.02

Results for O=S(=O)(Nc1nc(SCc2ccc(Cl)cc2)n[nH]1)c1ccc(-c2ccccn2)s1 ?
CDC25B CDK2 inh: -0.41

Results for N#Cc1c(Cl)cccc1N1CCSCC1 ?
CDC25B CDK2 inh: 0.87

Results for CCc1cc2c(Nc3ccc4c(c3)OCCO4)ncnc2s1 ?
HIV TAR-Tat: 0.89

How did C=CCn1c(SCC(N)=O)nnc1-c1ccc(OC)c(OC)c1 do in these assays?
HIV TAR-Tat: -0.78; CDC25B CDK2 inh: -1.6

What do the screens show for `Cc1ccc(-c2c(NCCN3CCCCC3C)c(=O)c2=O)cc1` (stereo not drawn)?
HIV TAR-Tat: 2.1

How did COc1ccc(C2C(C#N)=C(N)N3CCc4cc(OC)c(OC)cc4C3=C2C#N)cc1 (stereo not drawn) do in these assays?
CDC25B CDK2 inh: 0.59

Results for COC(=O)Cc1cc(OC)c(OC)cc1C(C)=O ?
CDC25B CDK2 inh: -1.6

Results for CCOC(=O)C1CCCN(c2c(NCCCN3CCN(CC)CC3)c(=O)c2=O)C1 (stereo not drawn) ?
HIV TAR-Tat: 0.55; CDC25B CDK2 inh: 0.75

How did COc1ccc(NC(=O)C(=O)N2N=C3CCCCC3C2(O)C(F)(F)F)cc1 (stereo not drawn) do in these assays?
CDC25B CDK2 inh: -0.36

Results for O=c1oc2ccccc2cc1S(=O)(=O)c1ccc(F)cc1 ?
CDC25B CDK2 inh: 0.85

How did COc1cc2ccccc2cc1C(=O)Oc1cccc2ccc(C)nc12 do in these assays?
HIV TAR-Tat: 0.52; CDC25B CDK2 inh: -0.88

Results for COC(=O)CN1C(c2cc(OC)c(OC)c(OC)c2)Nc2ccc(C)cc2C1c1ccccc1 (stereo not drawn) ?
CDC25B CDK2 inh: -0.16

What do the screens show for `Cc1nnc(SCc2ccccc2Cl)[nH]c1=O`?
HIV TAR-Tat: 1.8; CDC25B CDK2 inh: -0.77

What do the screens show for `CC(C)OC(=O)C1C(=O)CC(C)(O)C(C(=O)OC(C)C)C1c1ccc(Br)cc1` (stereo not drawn)?
HIV TAR-Tat: 1.7; CDC25B CDK2 inh: -1.9

What do the screens show for `Cn1c(=O)c(=O)n(C)c2cc(S(=O)(=O)CCC(=O)N3CCCC3)ccc21`?
HIV TAR-Tat: -1.2; CDC25B CDK2 inh: -0.75

What do the screens show for `Cc1ccc(C)c(NC(=O)N2CCN3CCCCC3C2)c1` (stereo not drawn)?
HIV TAR-Tat: 2.3

What do the screens show for `COCCCN=C1NS(=O)(=O)C(c2ccc(Cl)cc2)=C1C`?
HIV TAR-Tat: 0.36; CDC25B CDK2 inh: 0.57

Quoted at random: five entries already listed
How did COc1nc(N)nc(C2CC2)n1 do in these assays?
CDC25B CDK2 inh: -0.07

Results for COCCNc1nc(Nc2cccc(OC)c2)c2cnn(C)c2n1 ?
HIV TAR-Tat: 0.57

Results for CC1(OCC#CCN2CCOCC2)COC(C)(OCC#CCN2CCOCC2)CO1 (stereo not drawn) ?
CDC25B CDK2 inh: -1.9

Results for O=c1oc2ccccc2cc1S(=O)(=O)c1ccc(F)cc1 ?
CDC25B CDK2 inh: 0.85

How did CCOC(=O)Cc1csc(-n2nc(C)c(Cc3ccc(C)cc3)c2C)n1 do in these assays?
HIV TAR-Tat: 1.4; CDC25B CDK2 inh: -1.5

Continued:
Results for CCCc1ncc(C[n+]2ccccc2C)c(N)n1 ?
HIV TAR-Tat: 2.1

What do the screens show for `COc1ccc(Cl)cc1N1C(=O)CSCC1=O`?
CDC25B CDK2 inh: -1.7

What do the screens show for `N#Cc1c(-c2ccccc2)nc(SCc2ccc(Br)cc2)[nH]c1=O`?
HIV TAR-Tat: 0.81; CDC25B CDK2 inh: 3.8

What do the screens show for `O=C(Cn1c(=O)oc2cc(S(=O)(=O)N3CCCC3)ccc21)N1CCc2ccccc21`?
HIV TAR-Tat: 0.71; CDC25B CDK2 inh: 1.7

How did CC(=O)c1c(C)oc2c(Cl)cc(NS(=O)(=O)c3c(C)cc(C)cc3C)cc12 do in these assays?
CDC25B CDK2 inh: -2.5

What do the screens show for `Nc1nnc(Sc2cc(-n3cccc3)c(Cl)cc2[N+](=O)[O-])s1`?
CDC25B CDK2 inh: -2.4

Results for O=c1c(-c2ccccc2)c(N2CCc3ccccc3C2)c1=O ?
HIV TAR-Tat: 2.5

Rows are unselected, and some 0.97% of all compounds hit somewhere here.
